Kir21 block – inhibitors of mouse Kir2.1 inward-rectifier potassium channel; P35561; HEK293-Kir2.1, FluxOR thallium flux fluorescence; stronger effect = lower value; B-score at 10 µM; actives 0.85% (n = 310,000); AID 1672;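 active means fluorescence ratio B-score at or below minus 3 SD of library scores, with starting-brightness B-score within 2 SD, cut at about -4.2 in these data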;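 further: channel flux triggered by added potassium and thallium sulfate stimulus; B-score of peak minus minimum fluorescence over baseline after thallium stimulus; more negative B-score means stronger Kir2.1 block with less thallium influx; some compounds called inactive have numbers as strong as hits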
Target sequence (P35561 whole entry, looked up): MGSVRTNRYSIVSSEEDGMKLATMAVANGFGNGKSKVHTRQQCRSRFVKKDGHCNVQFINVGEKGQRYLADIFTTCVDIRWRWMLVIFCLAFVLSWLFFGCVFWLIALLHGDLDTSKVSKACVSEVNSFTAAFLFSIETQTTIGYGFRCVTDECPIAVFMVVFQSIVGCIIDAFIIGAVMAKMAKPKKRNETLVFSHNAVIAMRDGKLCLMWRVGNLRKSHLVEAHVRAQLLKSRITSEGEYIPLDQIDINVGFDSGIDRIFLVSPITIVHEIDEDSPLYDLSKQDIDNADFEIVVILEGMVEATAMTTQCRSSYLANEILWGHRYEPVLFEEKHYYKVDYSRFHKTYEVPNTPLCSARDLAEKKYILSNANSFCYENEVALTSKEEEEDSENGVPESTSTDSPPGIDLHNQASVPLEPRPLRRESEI
* marks the source's active call; other numbers are inactive results. These rows are one share of the data, and most or all hits are left out here.

Kir21 block	mol
-0.56	Cc1ccc(C)c(S(=O)(=O)N2CCN(C(=O)CCNS(=O)(=O)c3ccc(C)c(C)c3)CC2)c1
-0.2	Cc1ccc(C)c(N2CCN(C(=O)CCCn3c(=S)[nH]c4cc5c(cc4c3=O)OCO5)CC2)c1
-4.2	COc1ccc(Cl)cc1S(=O)(=O)n1ccnc1C(C)C
0.67	O=C(CO/N=C/c1ccc(OC(F)F)cc1)NC1CCCCCC1
-0.96	Cc1ccc(-c2csc(NC(=O)c3cccc(N4C(=O)CCC4=O)c3)n2)o1
0.9	Cn1cc(C2=C(c3ccc(Cl)cc3Cl)C(=O)NC2=O)c2ccccc21
1	O=C1/C(=C/c2cccs2)SC(=S)N1c1ccccc1
0.58	CCN(C(=O)CN(C)Cc1cccc(Cl)c1Cl)c1c(N)n(Cc2ccccc2)c(=O)[nH]c1=O
0.08	C/C(Cl)=C/Cn1c(SCC(C)C)nc2c1c(=O)[nH]c(=O)n2C
1	O=S1(=O)N=C(N2CCCC2)c2ccccc21
0.19	COc1ccc(-c2c3c(=O)n(C)c(=O)n(C)c3cn2Cc2ccccn2)cc1
-0.02	CC(=O)c1ccn(S(=O)(=O)c2ccc(Cl)cc2)c1

Copied from the list.
Value for `CC(=O)c1ccn(S(=O)(=O)c2ccc(Cl)cc2)c1` in Kir21 block: -0.02
Value for `COc1ccc(-c2c3c(=O)n(C)c(=O)n(C)c3cn2Cc2ccccn2)cc1` in Kir21 block: 0.19

(list continues)
Kir21 block	mol
1.6	CC(=O)Nc1ccc(NC(=O)CSc2ccc(-c3ccc(-n4ccnc4)cc3)nn2)cc1
1.2	Cc1cc2oc3c(c(=O)c2cc1C)C(c1ccc(F)cc1)N(CCCN1CCOCC1)C3=O (stereo not drawn)
1.5	Cc1cccc(N2CCN(C(=O)C3CCN(S(=O)(=O)c4cccc5nsnc45)CC3)CC2C)c1 (stereo not drawn)
-0.19	COc1ccc(CN2CCNC(=O)C2CC(=O)O)c(OC)c1 (stereo not drawn)
-0.92	CC(=O)CSc1nc(N(C)C)nc(N(C)C)n1
3.1	COc1ccc(-n2cnnc2SCC(=O)Nc2nc(C)c(Cl)cc2Cl)cc1
0.15	Cc1c(CNC2CCC(C)CC2)c(C(=O)O)c(C)n1Cc1ccccc1 (stereo not drawn)
2.5	O=C(O)c1ccccc1OCCOc1ccccc1C(=O)O
1.3	CN1CCN(c2ccccc2/C=N/NC(=O)c2cccnc2)CC1
0.79	Cc1cc(C)c(OCCCCn2cnc3ccccc3c2=O)c(C)c1
0.07	CCOc1ccc(C(=O)c2cc([N+](=O)[O-])ccc2N2CCOCC2)cc1
1.6	COc1ccc(C(=O)NCCc2ccc(F)cc2)cc1OC
0.32	COc1cc(NC(=O)CNC(c2ccccc2)c2ccccc2)cc(OC)c1OC
0.86	CN(C)c1ccc(CNC23CN4CN(CN(C4)C2)C3)cc1
-0.36	O=C(NCCCO)C(=O)NCc1ccccn1
0.54	Cc1cc(Cl)ccc1NC(=S)N1CCC(C(N)=O)(N2CCCCC2)CC1
0.95	CC(C)(C)c1ccc(C2=NC(=O)C(CC(=O)O)S2)cc1 (stereo not drawn)
-0.39	Cc1cc(C)c2c(n1)nn1c(C)c(CCC(=O)NCc3ccco3)c(C)nc21
-0.14	CN(C)CCCC(=O)c1ccc2c(c1)OCO2
0.26	CCc1ccc(C(=O)COC(=O)CNC(=O)c2cccs2)cc1
0.76	CNC(=O)C1CC(=O)N(Cc2ccc3c(c2)OCO3)C(=Nc2ccc(OC)cc2)S1 (stereo not drawn)
-1.7	COc1cccc(CNC(=O)Cc2ccc(OC)c(S(=O)(=O)N3CCOCC3)c2)c1
-1.6	CSc1cccc(NS(=O)(=O)c2cccc3nsnc23)c1
-1.5	O=C1CNC(=S)N1Cc1cccc(Cl)c1
-1.1	Cn1nc(C2CC2)cc1NC(=O)CC(CC(=O)O)c1ccccc1 (stereo not drawn)
-0.01	Cc1cc(C(=O)CSC(C)c2nc3ccccc3c(=O)[nH]2)c(C)n1C (stereo not drawn)
0.42	O=C(CCCC1=NS(=O)(=O)c2ccccc2N1)Nc1ccccc1
0.08	CC(C)NCC(O)COCCOc1ccc(Cl)cc1 (stereo not drawn)
0.53	CNC(=O)c1c(Cl)cnn1-c1ccc(C)cc1
-0.02	O=C(Nc1cccc(F)c1)C1CCN(S(=O)(=O)c2cnc[nH]2)CC1
-0.71	Cc1ccc(S(=O)(=O)Cn2nnnc2C(c2ccc(F)cc2)N2CCC(C(N)=O)CC2)cc1 (stereo not drawn)
2	Fc1ccc(-c2ccc(/C=N\n3cnnc3)o2)cc1Cl
0.49	Cn1c(SCC(=O)Nc2ccccc2F)nc2c(c1=O)SCC2
-0.02	COc1cccc(C2C(C#N)=C(N)Oc3c2oc(CO)cc3=O)c1 (stereo not drawn)
-1.2	O=C(Nc1nnc(S(=O)(=O)N2CCCCC2)s1)c1ccccc1Br
0.27	COc1cccc(C(=O)NCCNC(=O)c2ccco2)c1

Six compounds out of the list, sorted by length of the SMILES, high to low:
Kir21 block	mol
-0.2	Cc1ccc(C)c(N2CCN(C(=O)CCCn3c(=S)[nH]c4cc5c(cc4c3=O)OCO5)CC2)c1
0.76	CNC(=O)C1CC(=O)N(Cc2ccc3c(c2)OCO3)C(=Nc2ccc(OC)cc2)S1 (stereo not drawn)
0.08	C/C(Cl)=C/Cn1c(SCC(C)C)nc2c1c(=O)[nH]c(=O)n2C
0.79	Cc1cc(C)c(OCCCCn2cnc3ccccc3c2=O)c(C)c1
-1.6	CSc1cccc(NS(=O)(=O)c2cccc3nsnc23)c1
0.53	CNC(=O)c1c(Cl)cnn1-c1ccc(C)cc1

Next part:
Kir21 block	mol
-1.8	O=C(CCc1ccccc1)NNC(=O)Nc1cccc(Cl)c1
-0.02	CCOc1ccc(CN2CCNC(=O)C2CC(=O)N(C)CC2CCOCC2)cc1 (stereo not drawn)
-0.05	C/C=C\C=C\C(=O)Nc1cccc(C2=NOC3(C2)C[C@H](C(N)=O)N(C(=O)c2ccccc2C(=O)c2ccccc2)C3)c1 (stereo partly drawn)
-0.12	COc1cccc(NC(=O)CN2C(=O)C3(OCCCO3)c3ccccc32)c1
0.37	COc1cc(NC(=O)CN(C)CCOc2ccccc2)c(C)cc1[N+](=O)[O-]
-0.51	Cc1ccc(NC2CCCN(C(=O)Cc3nonc3C)C2)cc1C (stereo not drawn)
1.7	COc1ccc(NC(=S)Nc2cc(C)[nH]n2)cc1Cl
0.06	CC(C)c1ccc(Cc2nnc(NCCCO)[nH]c2=O)cc1
1.6	Cc1cccc(C)c1NC(=S)NC(=O)CCc1ccccc1
-2.2	C/C(=N\NC(=O)c1ccc(NS(=O)(=O)c2cccs2)cc1)c1ccccc1
-1.5	COC(=O)CSc1nc(N)c2c3c(sc2n1)CCCC3
1.4	O=C(Cc1cccs1)NCc1cn2ccccc2n1
1.5	COC(=O)CC1C(=O)NCCN1C(=O)OC(C)(C)C (stereo not drawn)
0.43	COc1ccc(S(=O)(=O)NC(C)C(=O)Nc2ccc3c(c2)OCCO3)cc1OC (stereo not drawn)
0.21	COC(=O)c1[nH]c2cccc(Cl)c2c1NC(=O)CN1CCCCC1C (stereo not drawn)
-0.95	CSc1ccccc1NC(=O)CSc1n[nH]c(C)c1[N+](=O)[O-]
-0.35	Cc1ccn2cc(-c3cccc(S(=O)(=O)N4CCCC4)c3)nc2c1
1	CC1(C)N([O-])C(c2cccs2)=C[N+]1=O
-0.12	CCN(CC)CCOc1c(C)cccc1Cl
0.37	Cc1cccc(C(=O)OCC(=O)Nc2sc3c(c2C#N)CCC3)c1
1.5	Cc1cc(NC(=O)CCC(=O)N(Cc2cccs2)C(C(=O)NC2CCCC2)c2ccccc2)no1 (stereo not drawn)
-2.1	CC(C)C(C)NC(=O)COc1ncnc2ccccc12 (stereo not drawn)
-0.17	CC(=C\C(=O)O)/C(=C/c1ccccc1)C(=O)O
0.98	Cc1cccc(-n2c(C)nc3cc(C(=O)N4CCOCC4)ccc32)c1
-0.82	O=C(Nc1ccc2ccccc2c1)c1cc(F)c(F)cc1Cl
-1.1	Cc1c(Cl)ccc(S(=O)(=O)NCCCn2ccnc2)c1Cl
-0.17	CC(=O)N1CCN(C(=O)c2cc3ccccc3o2)CC1
1.4	COc1ccc(C(=O)/C=C/Nc2ccc([N+](=O)[O-])cc2C)cc1OC
0.94	COc1ccc(Br)c(C(=O)Nc2nc3ccccc3[nH]2)c1
1.3	COc1ccc(S(=O)(=O)N2CCOCC2)cc1NC(=O)COC(=O)CCOc1ccc(C)cc1
-0.15	Cc1ccc2oc(-c3cccc(NC(=O)/C=C/c4cccc([N+](=O)[O-])c4)c3C)nc2c1
-2.1	CN(C1CCCCC1)C(CNS(=O)(=O)c1ccccc1)c1ccccc1 (stereo not drawn)
0.34	Cc1cccc(OCc2nc(C#N)c(N3CCCC3)o2)c1
-2.5	COc1ccc(CCNC(=O)c2ccccc2OCc2ccccc2)cc1
-0.1	Cc1ccc(NC(=O)C2CCN(S(=O)(=O)c3c(C)[nH]c(=O)[nH]c3=O)CC2)cc1
2	O=C(COC(=O)CCc1nc2ccccc2s1)Nc1ccc(S(=O)(=O)N2CCOCC2)cc1

Some of the entries so far, with bars between the fields.
structure | Kir21 block
COc1ccc(Br)c(C(=O)Nc2nc3ccccc3[nH]2)c1 | 0.94
COc1ccc(S(=O)(=O)N2CCOCC2)cc1NC(=O)COC(=O)CCOc1ccc(C)cc1 | 1.3
Cc1ccc2oc(-c3cccc(NC(=O)/C=C/c4cccc([N+](=O)[O-])c4)c3C)nc2c1 | -0.15
CN(C1CCCCC1)C(CNS(=O)(=O)c1ccccc1)c1ccccc1 (stereo not drawn) | -2.1
Cc1cccc(OCc2nc(C#N)c(N3CCCC3)o2)c1 | 0.34
COc1ccc(CCNC(=O)c2ccccc2OCc2ccccc2)cc1 | -2.5
Cc1ccc(NC(=O)C2CCN(S(=O)(=O)c3c(C)[nH]c(=O)[nH]c3=O)CC2)cc1 | -0.1

Next entries:
Kir21 block	mol
-0.23	O=S(=O)(N/N=C\c1ccc(-c2ccccc2Cl)o1)c1ccccc1
0.1	O=C(NCCO)c1cccc(Cl)c1
0.71	COc1cc(/C=C/C(=O)OCC(=O)Nc2ccccc2Sc2ccc(Cl)cc2)ccc1O
1.3	O=C(Nc1nccs1)c1ccc(COc2ccc(Cl)cc2)o1
-0.63	Cc1ccccc1Cn1ccc(-c2ccc3c(c2)OCO3)n1
0.12	CCOc1ccc(C(=O)COC(=O)c2cccc(-n3cnnn3)c2)cc1
-0.41	Clc1ccc(Cn2nnc(-c3ccc(CN4CCOCC4)cc3)n2)cc1
0.57	COC(=O)CCC(=O)NC(=S)Nc1ccccc1F
2.5	COc1ccc(C=C2C(=O)c3ccccc3C2=O)cc1O
1.8	O=C(O)c1cc2[nH]c3c(c2cc1Cl)CCCC3
-0.2	CCOC(=O)c1cc(S(=O)(=O)NC2CCCCC2)cn1C
2.3	CC1CCCCN1C(=O)CSc1nnc2c(n1)[nH]c1ccccc12 (stereo not drawn)
-0.96	O=C1NC(c2ccccc2)=CC(c2ccccc2O)N1 (stereo not drawn)
-1	C/C(CC(=O)Nc1ccccc1Cl)=N\NC(=O)C(=O)NCCO
0.65	O=C(NCCCO)c1cc2c([nH]c3ccccc32)c(-c2ccc(F)cc2)n1
1.1	O=C(Nc1ccc(Cl)c(Cl)c1)c1cccc(S(=O)(=O)NCc2cccnc2)c1
0.28	COC(=O)c1ccc(Oc2ccc(C(F)(F)F)cn2)cc1
-1.9	COc1cc(S(=O)(=O)NCc2ccccc2)ccc1Br
-0.83	OCCOCCn1c(C(CO)Nc2nc(-c3ccc(F)cc3)cs2)nc2ccccc21 (stereo not drawn)
-0.11	C=CCNC(=O)CSc1nnc(-c2ccccc2Br)n1-c1cccc(C(F)(F)F)c1
-1	O=C(Nc1cccc(Cl)c1)c1cc([N+](=O)[O-])ccc1N1CCN(CCO)CC1
0.77	Cc1nc2c(C(=O)O)cnn2c(C)c1Cc1ccccc1F
-0.49	Cc1ccc(S(=O)(=O)Nc2ccccc2F)cc1C(=O)NNC(=O)c1csc(N2CCOCC2)n1
1.1	Cc1ccc(CCNC(=O)CCn2ccc3cc(S(=O)(=O)N4CCCC4)ccc32)cc1
-0.24	CCCCC1=CC2=CC(=O)C(C)(OC(=O)c3cnc4ccccc4n3)C(=O)C2=CO1 (stereo not drawn)
0.8	NC1=NC(=O)/C(=C/c2ccsc2)S1
-0.75	Cc1noc(/C=C/N(C)C)c1S(=O)(=O)N1CCCC(C(=O)NCc2ccccc2Cl)C1 (stereo not drawn)
0.09	COc1ccccc1NS(=O)(=O)c1ccc2oc(SC3CCOC3=O)nc2c1 (stereo not drawn)
1.2	Cc1c(NC(=O)COC(=O)c2ccc(S(=O)(=O)N3CCOCC3)cc2)c(=O)n(-c2ccccc2)n1C
0.11	CN(C)C(=O)c1ccc(NC(=O)COc2ccc([N+](=O)[O-])cc2)cc1
-0.06	CC(=O)c1sc(NC(=O)c2c(F)cccc2F)nc1-c1ccccc1
0.11	O/N=C1/CCCCC1c1ccccn1 (stereo not drawn)
0.69	CSc1nc(N)nc(SC2C=CCCC2)c1C#N (stereo not drawn)
-0.62	c1csc(-c2noc(CN3CCc4sccc4C3)n2)c1
0.47	COc1ccc(CN=C2NC(=O)CC(C(=O)Nc3cc(C)cc(C)c3)S2)cc1 (stereo not drawn)
-0.61	COc1ccccc1N1CCN(Cc2cc(=O)n3ccsc3n2)CC1
0.74	O=C(NC(=S)Nc1cc([N+](=O)[O-])ccc1O)c1cccnc1
-0.46	COC(=O)c1cc(Br)c(=O)n(Cc2ccc(C(=O)O)cc2)c1
0.21	CCOC(=O)c1c(C)oc2cc(Br)c(O)c(Br)c12
-0.63	Cc1cc(C#N)c2ccccc2n1
-1.4	COc1ccc(Cl)cc1NC(=O)C1CCCN(c2cc(C)nc3ncnn23)C1 (stereo not drawn)
-0.08	Nc1ncc([N+](=O)[O-])cc1S(=O)(=O)c1ccccc1
1.7	CCCCCN(C(=O)NC(=O)Nc1ccccc1C)S(C)(=O)=O
0.54	CCC(CC)NC(=O)COC(=O)c1cccc(C)c1O
-1.8	CN(C)CCCN1C(=O)c2cccc3cccc(c23)C1=O
-3.7	CCc1ccccc1Nc1nc(N)nc(COC(=O)c2cccn2C)n1
0.08	COc1ccc(NC(=O)C2=NNC(=O)CC2)cc1S(=O)(=O)N1CCCCC1
0.91	COc1cc(OC)c(C(=O)Nc2ccc(S(=O)(=O)N3CCCCC3)cc2)cc1OC
